High-throughput results deposited in PubChem BioAssay by National Center for Advancing Translational Sciences (NCATS).
CtBP-E1A blk = CtBP/E1A binding inhibition | AlphaScreen GST-E1A/His-CtBP binding, 1536-well; hits give low values; control for the full effect not named in the record | activity change, % (test concentration not listed) | hit rate 0.49% among 340,000; in the data active means activity change below about -65%; inconclusive means about -30% to -65%; inactive means above about -30%; note: % is set by controls: 0 for no effect and ±100 for the full control effect; compound concentration not given in the record
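Steps: dispense buffer (Tris pH 8.0, NaCl 300 mM, TCEP 1 mM, BSA, Tween 20); add 5X protein mix (GST-E1A, His-CtBP, 125 nM each); pin 23 nL compound; 2 h at 37 °C, dark; add 5X beads (50 ug/mL); 1 h; read.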
TRPML1 inh = inhibitors of human TRPML1 channel; Q9GZU1; activity change, negative = inhibition, % (test concentration not listed); TRPML1-inducible cells, Ca2+ dye fluorescence, FDSS; hits give low values; inhibition of EC80 agonist-evoked calcium signal; hit rate 0.02% among 390,000; AID 624415; in the data active means activity change below about -50%; inconclusive means about -30% to -50%; inactive means above about -30%;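 note: stimulus is agonist 54-4 at its EC80 concentration; % is set by controls: 0 for no effect and ±100 for the full control effect; compound concentration not given in the record; the text of the record puts the active cut at -80%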
Target sequence (Q9GZU1 whole entry, looked up): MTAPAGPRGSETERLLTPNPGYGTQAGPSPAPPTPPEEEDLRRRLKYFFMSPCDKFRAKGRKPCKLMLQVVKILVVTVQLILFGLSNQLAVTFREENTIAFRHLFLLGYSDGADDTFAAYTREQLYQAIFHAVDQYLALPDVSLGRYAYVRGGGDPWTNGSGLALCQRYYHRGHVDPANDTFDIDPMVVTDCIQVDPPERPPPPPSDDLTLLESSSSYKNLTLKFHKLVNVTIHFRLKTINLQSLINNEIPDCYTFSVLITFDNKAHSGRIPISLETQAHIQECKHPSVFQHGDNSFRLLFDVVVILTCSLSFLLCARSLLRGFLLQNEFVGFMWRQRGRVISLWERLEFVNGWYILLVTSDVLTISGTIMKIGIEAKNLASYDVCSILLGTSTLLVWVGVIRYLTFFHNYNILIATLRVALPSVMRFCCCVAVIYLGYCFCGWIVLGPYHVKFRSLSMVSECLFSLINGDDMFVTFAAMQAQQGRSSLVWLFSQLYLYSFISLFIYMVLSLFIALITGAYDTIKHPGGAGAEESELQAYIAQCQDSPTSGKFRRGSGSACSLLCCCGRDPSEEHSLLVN
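Calcium fluorescence in TRPML1-DL cells induced overnight with Tet: a 110 s read after compound pin addition, then a 110 s antagonist read after challenge with 54-4 at 4 uM final (EC80).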
PINK1 modulator = PINK1 expression modulation; hit rate 0.2% among 410,000; PINK1 immunofluorescence, high-content cytometry, 24 h; Potency, µM (doses to about 76.6 µM), inactives show top-dose activation (PINK1 increase), usual class: activators; active = well fitted activation curve with a large enough effect; inconclusive = small, poorly fitted or top-dose-only effect; inactive = flat fitted curve, though single readings scatter; cell line not stated here;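 note: potency is the fitted concentration of half-maximal effect; % of control where 0% means no effect; nearly all actives have a fitted effect of over 65% in size; a mitochondrial uncoupler was the plate control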
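Decision-based qHTS: stable cells, 24 h exposure to five compound concentrations, CCCP as control. Fixed cells stained for PINK1 plus nuclear, mitochondrial and cell markers, cytometer read.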
D2 ag = agonists of human D2 dopamine receptor (beta-arrestin). P14416. DiscoveRx PathHunter D2 beta-arrestin, luminescence, 90 min; 100% = 57 uM dopamine signal. activation, % (no concentration beside the values). hit rate 0.084% among 360,000. AID 624465; in the data active = activation above about 40%; inconclusive = about 15% to 40%; inactive = below about 15%; note: compound concentration not given in the record; the text of the record calls up to 30% inactive
Target sequence (P14416 whole entry, looked up): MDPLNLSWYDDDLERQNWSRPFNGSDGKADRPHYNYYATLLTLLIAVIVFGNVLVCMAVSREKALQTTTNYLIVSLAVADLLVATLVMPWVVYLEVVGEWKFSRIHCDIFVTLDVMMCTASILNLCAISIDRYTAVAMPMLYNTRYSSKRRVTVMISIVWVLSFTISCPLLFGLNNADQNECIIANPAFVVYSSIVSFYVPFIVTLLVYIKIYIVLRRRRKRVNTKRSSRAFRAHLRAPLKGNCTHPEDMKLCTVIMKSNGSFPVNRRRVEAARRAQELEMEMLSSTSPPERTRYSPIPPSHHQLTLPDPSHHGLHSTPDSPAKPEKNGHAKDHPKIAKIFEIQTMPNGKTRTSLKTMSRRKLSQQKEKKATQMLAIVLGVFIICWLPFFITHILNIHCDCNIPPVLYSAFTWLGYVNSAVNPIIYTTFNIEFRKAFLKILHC
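DiscoveRx PathHunter D2 beta-arrestin cells (2,100/well) attached overnight, then compound-stimulated 90 min at 37 C in HBSS/10 mM HEPES/0.1% Tween-20 buffer; beta-galactosidase complementation read by luminescence after 1 h at ambient temperature. Dopamine 57 uM final (EC100) as control.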
TRPML1 ag = agonists of human TRPML1 channel | TRPML1-expressing cells, Ca2+ dye fluorescence, FDSS; host cell line not named in the record; reference of the full effect not given here | activation, % (concentration not given with the values) | hit rate 0.12% among 410,000 | Q9GZU1; in the data active = activation above about 50%; inconclusive = about 30% to 50%; inactive = below about 30%; note: 0% is about no effect; the text of the record puts the active cut at 80%
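Tet-induced TRPML1-DL cells, 1,500 per well, cultured overnight, were loaded with a no-wash Ca2+ dye for 45–90 min. Calcium fluorescence was recorded on the FDSS for 110 s after compound addition, before the EC80 agonist (4 uM 54-4) was added.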
Six1-Eya2 inh = Six1/Eya2 interaction inhibition | Q15475+O00167 | AlphaScreen GST-Six1/His-Eya2 binding, biochemical; hits give low values; control for the full effect not named in the record | activity change, % (test concentration not listed) | hit rate 0.56% among 360,000; in the data active = activity change below about -65%; inconclusive = about -30% to -65%; inactive = above about -30%; note: % is set by controls: 0 for no effect and ±100 for the full control effect; compound concentration not given in the record
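GST-Six1 + His-Eya2 (5X stock: 250/500 nM); Tris pH 8.0, 300 mM NaCl, 0.05% BSA, 0.02% Tween 20; GSH donor/Ni acceptor beads; 1 h 37 °C dark; AlphaScreen readout.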
* hit, by the source's call; ? = inconclusive; / = no result given; & = joins results of further samples; [ ] = remark or other dose.

SMILES | CtBP-E1A blk | TRPML1 inh | PINK1 modulator | D2 ag | TRPML1 ag | Six1-Eya2 inh
COCCNC(=O)C1CCCN(S(=O)(=O)c2c(C)noc2/C=C/c2cccs2)C1 (stereo unspecified) | / | -7 | -1.3% | -5.1 | 0.1 | 1
CCc1ccc(NC(=O)CSc2nc(=O)n3cc(C)ccc3n2)cc1 | 9 | -1 | 1.3% | 4.1 | -0.1 | -1
CCCC(=O)Nc1nc2ccc(NC(=O)c3ccc(Br)o3)cc2s1 | 10 | -14 | 9.8% | 2.4 | 2.3 | 0
O=C(Nc1ccc2nc(SCCOc3ccccc3Cl)sc2c1)c1ccco1 | / | 26 | -0.4% | / | 1.8 | /
O=C(C1=COCCO1)N(Cc1nnc(-c2ccccc2Cl)o1)C1CC1 | / | 1 | -1.1% | -0.9 | -0.7 | 0
O=C1OC(c2ccc(F)cc2)=N/C1=C\c1ccc(Br)o1 | -7 | -9 | 1.2% | -2.3 | 0.0 | 10
CCCCn1c(CCC(=O)O)nc2c1c(=O)[nH]c(=O)n2CCC | 2 | 24 | -1.7% | -0.1 | -0.1 | 8
CSc1ncccc1C(=O)OCC(=O)NC(C)C | 8 | -4 | -0.9% | 1.5 | 0.4 | 1
FC(F)(F)c1cc(-c2ccccc2)nc(NC2CCCC2)n1 | 46 | -1 | 11% | -2.6 | 1.6 | 64
CC(C)(C)c1cc(NC(=O)COC(=O)c2ccc3c(=O)n4c(nc3c2)CCC4)n(-c2ccccc2)n1 | 6 | -1 | 0.8% | 0.0 | 1.1 | 0

An excerpt from above in order of their number in CtBP-E1A blk, highest first.
canonical_smiles	CtBP-E1A blk	TRPML1 inh	PINK1 modulator	D2 ag	Six1-Eya2 inh
CSc1ncccc1C(=O)OCC(=O)NC(C)C	8	-4	-0.9%	1.5	1
CCCCn1c(CCC(=O)O)nc2c1c(=O)[nH]c(=O)n2CCC	2	24	-1.7%	-0.1	8
O=C1OC(c2ccc(F)cc2)=N/C1=C\c1ccc(Br)o1	-7	-9	1.2%	-2.3	10

The list goes on.
SMILES | CtBP-E1A blk | TRPML1 inh | PINK1 modulator | D2 ag | TRPML1 ag | Six1-Eya2 inh
O=C1/C(=C\c2ccccc2Cl)SC(=S)N1CCC(=O)N1CCCc2ccccc21 | -7 | -5 | -3.0% | 0.3 | 0.5 | -7
O=C(NCc1ccccc1Cl)C1CCN(c2ncnc3c2nc2n3CCCCC2)CC1 | 2 | 6&-3 | 4.2%&4.5% | -1.0 | -1.5&2.8 | 3
CC(=O)c1c(C)[nH]c(-c2ccccc2)nc1=S | 6 | 37 | 4.1% | -19 | 0.4 | -3
Cc1cc(C(=O)Nc2cccc(S(=O)(=O)N3CCCCC3)c2)c2ccccc2n1 | -7 | 31 | 1.7% | 1.3 | -0.7 | -16
Cc1cccc(/C=N/NC(=O)NC2CCCCC2)c1 | -21 | 10 | 12% | -6.4 | 2.3 | -12
Cc1cnc([N+](=O)[O-])n1CCOC(=O)NC(=O)c1ccc(C(F)(F)F)cc1 | 8 | -2 | 0.7% | -3.2 | -0.6 | -5
CCCCN(C(=O)CSc1nn(-c2ccc(F)cc2)c(=S)s1)c1c(N)n(CCCC)c(=O)[nH]c1=O | 0 | 13 | -1.4% | -0.4 | 3.6 | -2
Cc1cccc(-n2ncc3c(N4CCCC(C)C4)ncnc32)c1 (stereo unspecified) | / | 16 | 4.6% | / | 0.7 | /
CC1CCCC(NC(=O)CSc2nnc(N)s2)C1C (stereo unspecified) | 0 | 0 | -0.8% | -3.1 | -0.7 | -1
C/C=C(/C)C(=O)Nc1cccc(C2=NOC3(C2)C[C@H](C(N)=O)N(C(=O)COc2ccc(Cl)cc2)C3)c1 (stereo partly specified) | -5 | 14 | 0.8% | -0.8 | -0.6 | -11

Part of the list above, reduced to TRPML1 inh and PINK1 modulator.
Structure	TRPML1 inh	PINK1 modulator
CC(=O)c1c(C)[nH]c(-c2ccccc2)nc1=S	37	4.1%
Cc1cccc(-n2ncc3c(N4CCCC(C)C4)ncnc32)c1 (stereo unspecified)	16	4.6%
Cc1cc(C(=O)Nc2cccc(S(=O)(=O)N3CCCCC3)c2)c2ccccc2n1	31	1.7%

Following part:
SMILES | CtBP-E1A blk | TRPML1 inh | PINK1 modulator | D2 ag | TRPML1 ag | Six1-Eya2 inh
Cc1ccc(-c2nnn(CC(=O)N(Cc3ccco3)C(C(=O)NC3CCCC3)c3cccs3)n2)o1 (stereo unspecified) | -2 | -1 | 4.6% | -2.8 | 0.0 | -4
CCn1nc(CCC(=O)O)c2ccccc2c1=O | 5 | 13 | -0.8% | -1.2 | -0.3 | 5
CCOC(=O)c1cc2c(=O)n3ccccc3nc2n(CC2CCCO2)c1=NC(=O)c1cc(C)cc(C)c1 (stereo unspecified) | / | 11 | 1.6% | / | 0.2 | /
Cc1c(C(=O)NCCc2ccc(Cl)cc2)cccc1-n1cnc2cccnc21 | / | 48 | 1.8% | / | 1.9 | /
COc1ccc(C2SCCN2C(=S)Nc2cccc(C(F)(F)F)c2)cc1 (stereo unspecified) | -11 | 7 | 3.4% | -3.9 | 0.0 | 2
Cc1cc(C(=O)COC(=O)/C=C/c2cccc(Br)c2)c(C)n1C | -66* | 14 | ? | -2.8 | 0.4 | ?
COc1ccccc1CNC(=O)COC(=O)Cc1c(F)cccc1Cl | -5 | 9 | -0.3% | 2.2 | -0.1 | -2
Cc1cccc(C(=O)NCC(=O)OCc2cc(=O)n3nc(CC(C)C)sc3n2)c1 | / | 3 | -0.2% | / | -1.0 | /
O=[N+]([O-])c1ccccc1/C=C\C=N\N1CCN(c2ccccc2)CC1 | -23 | 20 | -0.2% | 4.9 | 2.9 | -66*
Cc1cc(C=NCCO)c(C)n1-c1cc(Cl)ccc1Cl | -14 | 3 | 2.3% | -4.5 | -1.2 | 0
CCCCc1cc(=O)oc2cc(OCC(=O)NCCN3CCOCC3)c(Cl)cc12 | -2 | 2 | 0.7% | -1.0 | -0.3 | 5
CCC1Oc2ccccc2N(CC(=O)NCCCN2CCCCC2CC)C1=O (stereo unspecified) | 5 | -11 | / | -2.0 | -0.3 | 2
Cn1c(SCc2ccc(F)cc2Cl)nc2ccccc2c1=O | -10 | -9 | 16% | 4.9 | 2.0 | 9
O=C(COC(=O)c1ccc(OC(F)F)cc1)NCCNC(=O)COC(=O)c1ccc(OC(F)F)cc1 | -24 | -11 | 2.3% | -1.7 | 0.0 | -4
N#CC1CN(C(c2ccccc2)c2ccccc2)C1 | 0 | 23 | 0.4% | -0.9 | 0.4 | 4
CCOc1ccccc1N1CC(C(=O)NNC(=O)c2ccc(F)cc2)CC1=O (stereo unspecified) | -1 | 0 | -0.9% | 1.6 | 0.4 | 14
N#CCN=C(c1ccccc1)c1ccccc1 | 9 | -6 | 1.7% | -7.6 | 0.0 | 7
CN(C(=O)c1ccc(F)cc1)c1ccccc1C(=O)NCc1ccccc1 | 0 | 1 | -1.3% | -3.8 | 1.1 | 18
Cc1cc(C)cc(NC(=O)c2cccc3c2C(=O)N(C2CCCCC2)C3)c1 | -1 | -7&25 | 2.3%&0.3% | 0.1 | 0.7&-0.9 | -1
COc1ccc(S[C@@H](CCN2CC[C@H](C)CCC2=O)c2ccccc2)cc1 | 1 | 18 | 13% | -0.2 | 2.3&-0.1 | -4
CCn1cc(S(=O)(=O)CC(=O)Nc2ccc3c(c2)OCCO3)c2ccccc21 | -2 | -3 | -3.5% | 12 | 1.2 | -1
COc1cc(OC)cc(C(=O)Nc2ccccc2NC(C)=O)c1 | 1 | -19 | -0.2% | -2.4 | 0.4 | 2
CCOc1ccccc1CNC(=O)CCNC(=O)Cn1ccc2ccccc2c1=O | -13 | 7 | 0.0% | -1.2 | 1.1 | 4
COC(=O)c1cccc(NC(=O)c2nn(C)c(=O)c3ccccc23)c1 | -85* | -3 | 5.8% | -4.3 | 0.6 | -83*
COc1ccccc1NC(=O)CSc1nncn1-c1cccnc1 | 1 | 3 | 9.7%[38.3 µM] | -0.1 | -0.8 | -3
O=[n+]1c2c(n([O-])c3cc(Br)ccc31)CCC2 | -4 | -2 | -1.7% | 1.2 | -0.1 | 5
O=C(c1ccc2c(c1)N(Cc1ccccc1F)C(=O)c1ccccc1S2(=O)=O)N1CCN(c2ccccc2F)CC1 | / | -11 | -0.4% | / | -1.1 | /
CC1(c2nc3ccccc3[nH]2)c2ccccc2C(=O)N1C1CC1 (stereo unspecified) | 6 | / | -0.7% | / | -0.4 | 2
COc1ccc(NC(=O)Cc2ccc(C)cc2)c([N+](=O)[O-])c1 | -19 | 10 | -0.7% | 0.3 | 0.7 | -23
COc1ccc(C(CC(=O)Nc2ccc(C)cn2)N2Cc3ccccc3C2=O)cc1OC (stereo unspecified) | / | 11 | -3.6% | / | 1.7 | /
CCCC1=NN(c2ccc([N+](=O)[O-])cc2)C(=O)/C1=C\N(C)C | 2 | 1 | 6.4% | -5.8 | 1.5 | -4
Cc1cc(NC(=O)CC(C)C)c(=O)n(Cc2c(F)cccc2Cl)c1 | -14 | -7 | 3.2% | -4.8 | 1.8 | -2
CC(=O)Nc1ccn(-c2ccccc2)n1 | 0 | 11 | 1.7% | 1.6 | -0.2 | -9
O=C(CCC(=O)N1CCSc2ccccc21)NCCc1ccccc1 | 7 | 0 | -0.4% | -1.9 | 0.1 | 10
COc1ccc(S(=O)(=O)Nc2cccc3c2O[C@H](CN(C)Cc2ccc(-c4ccccc4)cc2)[C@@H](C)CN([C@H](C)CO)C3=O)cc1 | -3 | -3 | 1.3% | 1.8 | 0.0 | -8
Cc1ccc(N(CC(=O)NCC(C)c2ccccc2)S(=O)(=O)N(C)C)cc1 (stereo unspecified) | / | -14 | 0.6% | / | 2.6 | /
COc1ccc(SCCN2CCN(C)CCC2=O)cc1 | 4 | -10&5 | 0.9% | 3.2 | 0.2&-0.6 | 3
COc1ccc(Cl)cc1N/C(N)=N/c1nc(C)cc(=O)[nH]1 | 9 | 15 | -2.5% | 8.8 | -0.2 | 12
CCC(=O)NC(c1ccc(OC)c(OC)c1)c1cc(Cl)c2cccnc2c1O (stereo unspecified) | -85* | -8 | ? | -7.8 | 5.4&1.6 | -82*
CCNc1nc(NC(C)(C)C)nc(Oc2ccc(=O)n(C)n2)n1 | / | -9 | 0.7% | / | -0.5 | /
CCC(C)N(C(=O)CSc1nc2ccc(OC)cc2[nH]1)C1CCS(=O)(=O)C1 (stereo unspecified) | 3 | 28 | -0.2% | -3.9 | 0.2 | 5
C[n+]1cn(/N=C/c2ccccc2)c2ccccc21 | 15 | -23 | 0.6% | -3.4 | -0.2 | 11
Cn1cc(C=O)c2cc(F)ccc21 | / | -4 | 0.5% | -1.7 | 0.3 | 0

Structures above containing a COOH group:
SMILES | CtBP-E1A blk | TRPML1 inh | PINK1 modulator | D2 ag | TRPML1 ag | Six1-Eya2 inh
CCCCn1c(CCC(=O)O)nc2c1c(=O)[nH]c(=O)n2CCC | 2 | 24 | -1.7% | -0.1 | -0.1 | 8
CCn1nc(CCC(=O)O)c2ccccc2c1=O | 5 | 13 | -0.8% | -1.2 | -0.3 | 5
